Screens from PubChem BioAssay.
VACV mCherry inh: inhibitors of vaccinia virus infection (mCherry reporter signal). Vaccinia virus mCherry reporter infection, fluorescence; about a quarter of the inactives have no number. 0.63% of 310,000 active. Potency, µM (doses to about 36.5 µM), without a hit: at the highest dose activity change, negative = inhibition, actives largely listed as inhibitors; active = well fitted inhibition curve with a large enough effect; inconclusive = small, poorly fitted or top-dose-only effect; inactive = no such curve, though single readings can be large or run the other way; tested in A549 cells; further: nearly all actives have a fitted effect of over 35% in size; inactives centre near -10
VACV Venus inh: vaccinia inhibition (Venus reporter); Vaccinia virus Venus reporter expression, fluorescence; Potency, µM (titrated, usually from 36.5 µM), without a hit: top-dose activity change, negative = inhibition, hits mostly inhibitors; 0.46% of 330,000 active; AID 720580; active means well fitted inhibition curve with a large enough effect; inconclusive means small, poorly fitted or top-dose-only effect; inactive means no such curve, though single readings can be large or run the other way; tested in A549 cells; further: nearly all actives have a fitted effect of over 30% in size; inactives centre near -10
An asterisk follows results filed as active; i = inactive; ? = inconclusive; / = not tested or not shown; & = joins results of further samples; [ ] = dose if it differs, or a comment. On the % scale 0 is the no-effect control and ±100 the full control effect; potency means the concentration at half of the fitted maximal effect.

mol	VACV Venus inh	VACV mCherry inh
Cc1cc(C)c(C)c(S(=O)(=O)NCC(=O)N2CCCC2)c1C	-12%	-26%
O=C1CN(C(=O)Cc2ccccc2)C(c2ccc(F)cc2)c2cc(Br)ccc2N1 (centres undefined)	-17%	-18%
Cc1cccn2c(=O)c(/C=C(\C#N)C(=O)NCc3ccco3)c(N3CCCC(C)C3)nc12 (centres undefined)	-30%	-14%
CCCCn1c(N)c(N(CC(C)C)C(=O)C2CC(=O)N(Cc3ccco3)C2)c(=O)[nH]c1=O (centres undefined)	-12%	i
COc1cc(-c2cc(C(=O)Nc3nc4ccccc4s3)c3ccccc3n2)cc(OC)c1OC	-11%	i
CN1OCC(S(=O)(=O)c2ccccc2)C1c1ccccc1 (centres undefined)	-7%	-5%
Cc1ccccc1-c1nnn(CC(=O)N2CCN(C(=O)c3ccco3)CC2)n1	-2%	i
C(=Nc1ccccc1)c1ccc[nH]1	7%	-10%
COc1ccc(NC(=O)CCNS(=O)(=O)c2ccc3[nH]c(=O)oc3c2)cc1Cl	-4%	0%
CCOC(=O)c1cnc(COc2ccccc2Cl)[nH]c1=O	-16%	0%
CC[C@]12c3[nH]c4cc(CCC(=O)N(C)C)ccc4c3CCN1C(=O)[C@@H](CC(=O)NCCC1=CCCCC1)C[C@@H]2C(=O)N1CCN(C(=O)C2CC2)CC1	-19%	-17%
CCCC[C@@H]1CNC(=O)C(=O)N1CC(C)(C)C	-2%	i
CC(C)NC(=O)CSc1ccccc1C(=O)N1CCN(S(=O)(=O)/C=C/c2ccccc2)CC1	-6%	-23%
CCCC(C(=O)NC1CCCC1)N(Cc1ccc(OC)cc1)C(=O)c1snc(C(N)=O)c1N (centres undefined)	0%	i
COc1ccc(CCNC(=O)c2ccc3c(c2)NC(=O)C(C(C)C)N3)cc1OC (centres undefined)	-18%	?
N/N=C/C(=N\Nc1ccc(Cl)cc1)C(=O)c1ccncc1	-20%	?
Cc1ccc(C)c(N2CCN(C(=O)C3CCN(S(=O)(=O)c4cn(C)cn4)CC3)CC2)c1	-4%	-12%
CC(=O)NC(CCS(C)(=O)=O)C(=O)Nc1ccc(C)c(F)c1 (centres undefined)	?	/
COc1ccc(NC(=O)Nc2cn(CC(C)C)c(=O)c3ccccc23)c(OC)c1	-5%	-3%
O=C(COc1ccc(Cl)cc1)NN=C1CCCCCCC1	-7%	i
Cc1ccc([N+](=O)[O-])cc1NCC(=O)NN	-8%	-3%
Cc1ccc(S(=O)(=O)C[C@@H]2OC[C@H](Cc3ccccc3)N2S(=O)(=O)c2ccc(C)cc2)cc1	-19%	-27%
COc1cc(OC)c(C=CC(=O)c2ccccc2O)c(OC)c1	?	?
CN(C)C(=O)c1cc(C(=O)c2ccc(F)cc2Cl)c[nH]1	-19%	i
CC(=O)C12C3C4C(C5C1C3C5(Br)C41OCCO1)C21OCCO1 (centres undefined)	-7%	i
CCc1cccc(-n2c(=O)c3cccnc3n2CC(=O)NCc2ccccc2Cl)c1	-11%[7.34 µM]	-11%[7.34 µM]
CN1CCN(C2CN(Cc3cn(Cc4ccc(C(F)(F)F)cc4)nn3)S(=O)(=O)C2)CC1 (centres undefined)	-10%	-1%
O=C(Nc1cc(C(F)(F)F)ccc1F)C1Cc2c(-c3ccccc3Oc3ccccc3)ccnc2O1 (centres undefined)	-10%	i
COC(=O)CSc1nc2ncc(Cl)cc2[nH]1	19%	/
Cc1cccc(Nc2nnc(SCc3cc(=O)n4cc(C)ccc4n3)s2)c1	-13%	i
Cc1ccc(NCN2C(=O)C3CC=C(Cl)CC3C2=O)cc1 (centres undefined)	-21%	/
O=C(C[C@H]1C[C@H](C(=O)N2CCCCC2)[C@@]2(CCc3ccccc3)c3[nH]c4cc(-c5ccco5)ccc4c3CCN2C1=O)NCc1ccco1	-25%	?
O=C(O)C1C2C=CC(C2)C1C(=O)OC1CC2CCC1C2 (centres undefined)	-8%	-12%
CC1(C)CC(=O)C2=C(C1)N1C(=C(C#N)C2c2ccccc2Cl)N=C(N)c2ccccc21 (centres undefined)	-15%	-10%
Cc1ccc(-n2ncc3c(Nc4ccc(Oc5ccccc5)cc4)ncnc32)cc1	-2%	-6%
N#Cc1c(N)nc2c(c1-c1ccccc1)CCC2	-5%	-6%
O=C(Nc1ccc(-c2cc3ccccc3oc2=O)c(Cl)c1)c1cccnc1	-4%	-12%
O=C(COC(=O)c1cccc2ccccc12)NCC1CCCO1 (centres undefined)	-9%	-10%
NS(=O)(=O)c1ccc(NC(=O)Cc2c(F)cccc2Cl)cc1	-7%	-6%
CCCCC(=O)Nc1nc(C)c(-c2csc(Nc3cc(OC)ccc3OC)n2)s1	?	1.1µM*
COc1ccc(CC(=O)Nc2cc(S(=O)(=O)N3CCCCC3)ccc2N2CCN(C)CC2)cc1	-14%	i
COc1ccc2c(c1)c1c(c(=O)n(-c3ccc(F)c(Cl)c3)c(=O)n1Cc1ccccc1C)n2C	-6%	-4%
CCCN1CCN(CC2=C(C(=O)OCC)C(c3ccc(OC(C)C)cc3)NC(=O)N2)CC1 (centres undefined)	-3%	-9%
COc1cc(CCC(=O)Nc2ccc(S(=O)(=O)NC3=NCCCCC3)cc2)cc(OC)c1OC	-19%	-12%
COC(=O)c1c(-c2cccc(OC)c2)csc1N	3%	0%
C=Cc1ccc(COC(=O)c2cn(CC)c3nc(C)ccc3c2=O)cc1	1%	-12%
CCOc1ccc(-n2cc(-c3ccccc3)c3c(NC4CCCC4)ncnc32)cc1	-9%	-15%
CC(=O)NC(c1ccc(F)c(F)c1)c1nc(-c2cccc(C(=O)O)c2)cs1 (centres undefined)	-4%	3%
OCCCNc1nccc(-c2cc(Nc3cccc(Cl)c3)ncn2)n1	0.89µM*	?
CCOC(=O)c1sc(NC(=O)C2CC(=O)N(c3ccc(OC)cc3)C2)nc1C (centres undefined)	-10%	-5%

Continued.
mol	VACV Venus inh	VACV mCherry inh
COc1ccc(/C=N/NC(=O)Cn2ccnc2C)cc1OC	-7%[7.34 µM]	i[7.34 µM]
CCOc1cccc2cc(C(C)=O)oc12	-3%	i
Clc1ccc(-c2nnc3n2CCCCS3)cc1	-5%	-10%
COC(=O)Cn1ccnc1[N+](=O)[O-]	-2%	i
COc1ccccc1CNC(=O)CN1CCN(Cc2ccc(Cl)cc2)C1=O	-23%	?
CN(C(=O)c1ccc(NC(=O)C2CCN(C(=O)OC(C)(C)C)CC2)cc1)C1CC1	-18%	i
COc1cc(C2C(C#N)=C(N)Oc3n[nH]c(-c4cccnc4)c32)cc(Br)c1O (centres undefined)	-10%	-26%
COc1cccc(Nc2c([N+](=O)[O-])cncc2[N+](=O)[O-])c1	-18%	?
Cc1ccc(OC(=O)c2cccc(S(=O)(=O)N3CCCC3)c2)c(-n2nc3ccccc3n2)c1	-11%	-25%
CC(C)Cn1cc(NC(=O)N2CCN(c3ccccc3F)CC2)c2ccccc2c1=O	-3%	6%
CC1=C(CC(=O)O)c2cc(F)ccc2/C1=C\c1ccc(S(C)=O)cc1 (centres undefined)	-12%&-12%	-7%&-12%
O=C(COc1ccccc1F)OCC(=O)N1CCc2ccccc21	-11%	-20%
CN(C)CCOc1ccc(Cl)cc1C(C)(C)C	-1%	6%
CS(=O)(=O)N1CCN(C(=O)c2ccccc2F)CC1	-14%	-2%
COc1cc(CNCCN2CCOCC2)ccc1OCc1ccc(Cl)cc1Cl	?	?
C#CCNC(=O)C[C@@H]1C[C@@]2(C(=O)OCC)CCCC=C2N(CCC2=CCCCC2)C1=O	-22%	-22%
COc1ccc(C(=O)COC(=O)C(CCCCN2C(=O)C3C4C=CC(C4)C3C2=O)N2C(=O)C3C4C=CC(C4)C3C2=O)cc1 (centres undefined)	-13%	-14%
O=C(Nc1ccc(F)cc1)Nc1cc(S(=O)(=O)N2CCOCC2)ccc1N1CCCC1	2%	12%
O=C(OCc1ccccc1)N1CCC2CC1c1c(-c3ccc(C(F)(F)F)cc3)cccc12 (centres undefined)	-12%	-9%
COc1ccc(C(c2nnnn2C(C)(C)C)N2CCN(C(=O)c3ccco3)CC2)cc1 (centres undefined)	-14%	0%
CC1CCC(NC(=O)c2ccc3c(c2)N(Cc2ccccc2F)C(=O)c2ccccc2S3=O)CC1 (centres undefined)	-5%	-7%
COc1ccc(CNC(=O)c2noc(C(C)C)c2[N+](=O)[O-])cc1	-15%	i
Cc1cc(C)c2c(N)c(C(=O)Nc3ccccc3C(F)(F)F)sc2n1	3%	-13%
Nc1nc(-c2ccc(Br)cc2)c(S(=O)(=O)c2ccccc2)s1	-19%	?
CCCCn1nnnc1C(c1cc2ccccc2o1)N(CCN(C)C)Cc1ccccc1 (centres undefined)	-5%	9%
COC(=O)/C=c1/s/c(=C(\C#N)C(=O)NCc2ccco2)n(-c2ccc(C)cc2)c1=O	4%	/
C#CCOCCOCCOCCNc1nc(N2CCN(C(=O)Cn3cc(CC(C)O)nn3)CC2)nc(N2CCN(C(=O)[C@H](CCCCN)n3cc(CC(C)O)nn3)CC2)n1 (some centres undefined)	11%	-12%
O=c1[nH][nH]c2c1[C@@H](c1ccc(F)cc1)O[C@H](C1CCCCC1)C2	-7%	i
O=S1(=O)CCN2N=C(C34CC5CC(CC(C5)C3)C4)SC2=N1	-4%	-1%
O=C(Nc1nccs1)c1cc(S(=O)(=O)N2CCOCC2)c(Cl)cc1Cl	-14%	-17%
Cc1ccc(S(=O)(=O)c2nnn3c2nc(NCc2ccc4c(c2)OCO4)c2sccc23)cc1	?	?
CCc1noc(C)c1C(=O)N1CCN(S(=O)(=O)c2cccs2)CC1	-5%	-13%
CC1(C)CC(=O)C=C(c2cccnc2)C1	-10%	i
COc1ccc(NC(=O)C(c2ccccn2)N(C(C)=O)c2ccc(C)cc2)cc1 (centres undefined)	-5%	i
COc1ccccc1N1CCN(c2ncnc3c2c(-c2ccccc2)cn3-c2cccc(Cl)c2)CC1	-8%	-2%
CCOC(=O)C1=C(C)NC2=C(C(=O)C(C(=O)OCC)C(c3ccco3)C2)C1c1ccccc1C (centres undefined)	-24%	-22%
S=C(NCc1ccccc1)NNc1ccccc1	-1%	-6%
Cc1ccc(/C=N/NC(=O)Cn2cncn2)cc1	-7%	i
CCN(Cc1ccccc1)C(=O)COC(=O)Cn1cnc2ccccc21	-11%	i
COc1cccc(N/C(N)=N/c2nc(C(F)(F)F)cc(=O)[nH]2)c1	-11%	-4%

Entries of single compounds, quoted from the list.
CCN(Cc1ccccc1)C(=O)COC(=O)Cn1cnc2ccccc21 as listed: VACV Venus inh = -11%; VACV mCherry inh = i
Cc1ccc(/C=N/NC(=O)Cn2cncn2)cc1 as listed: VACV Venus inh = -7%; VACV mCherry inh = i
S=C(NCc1ccccc1)NNc1ccccc1 as listed: VACV Venus inh = -1%; VACV mCherry inh = -6%

Later entries
mol	VACV Venus inh	VACV mCherry inh
Cc1ccc(N2CCN(C(=O)C3CCN(S(=O)(=O)c4cccc5nsnc45)CC3)CC2C)cc1 (centres undefined)	6%	i
COC(=O)C1=C(C)N(Cc2ccccc2)C(=O)N[C@H]1c1ccccc1	?	i
Cc1ccc(Cn2c(SCc3ccc(C(=O)NCCc4ccccc4)cc3)nc3ccncc32)cc1	?	-11%
CCOC(=O)c1ccc(NC(=O)CSc2nnc(C3CC3)n2C)cc1	-11%	i
COc1ccccc1NC(=O)/C(N=Nc1ccc(C)c(S(=O)(=O)Nc2ccccc2Cl)c1)=C(\C)O	3%	i
Cc1cc(O)c(C)c(O)c1C(=O)O	-12%	-19%
CC(C)(C)CCN1CCC(CN2CCNC(=O)C2=O)CC1	-10%	i
CCC1CCCCN1S(=O)(=O)c1ccc(-n2cnnn2)c(C)c1 (centres undefined)	-5%	-15%
Cc1ccc(Nc2cc(C(=O)NCc3cccs3)c3ccccc3n2)c(C)c1	2%	-6%
CCOc1cc(C2c3c(oc4ccc(F)cc4c3=O)C(=O)N2Cc2ccc(C)cc2)ccc1O (centres undefined)	-7%	-8%
Cc1ccc(-c2nnc(SCc3ccccc3C)o2)cc1	-7%	3%
CC(=O)N1c2ccc(S(=O)(=O)N(C)CC(=O)NCc3ccccc3)cc2CC1C (centres undefined)	-19%	-23%
COc1cc(CCC(=O)NCc2ccc3c(c2)CCN3C(=O)c2ccc(F)cc2)cc(OC)c1OC	-4%	-14%
O=c1ccsn1Cc1ccccc1	-7%	i
O=C(CSc1nc2ccccc2[nH]1)Nc1ccc2c(c1)OCCO2	-16%	-26%
Cc1ccc(S(=O)(=O)NCC(c2ccco2)N2CCOCC2)cc1 (centres undefined)	7%&-6%	-12%
Cc1ccc(S(=O)(=O)CCc2nc3ccccc3[nH]2)cc1C	-9%	-20%
CCOC(=O)c1c(C)[nH]c(C)c1S(=O)(=O)N(C)CC(=O)Nc1ccc(C)c(N(C)C)c1	-10%	-20%
COc1ccccc1/C=C/C(=O)OCC(=O)NC(=O)NC1CCCC1	-10%	i
